Screens from PubChem BioAssay.
VACV mCherry inh: inhibitors of vaccinia virus infection (mCherry reporter signal) | Vaccinia virus mCherry reporter infection, fluorescence; about a quarter of the inactives have no number | Potency, µM (highest dose often 36.5 µM), without a hit: at the top dose activity change, negative = inhibition, actives largely listed as inhibitors | 310,000 compounds, 0.63% hits | AID 720579; active = well fitted inhibition curve with a large enough effect; inconclusive = small, poorly fitted or top-dose-only effect; inactive = no such curve, though single readings can be large or run the other way; tested in A549 cells; further: nearly all actives have a fitted effect of over 35% in size; inactives centre near -10
VACV Venus inh: vaccinia inhibition (Venus reporter); Vaccinia virus Venus reporter expression, fluorescence; 330,000 compounds, 0.46% hits; AID 720580; Potency, µM (titrated, usually from 36.5 µM), for the others: top-dose activity change, negative = inhibition, most hits filed as inhibitors; active means well fitted inhibition curve with a large enough effect; inconclusive means small, poorly fitted or top-dose-only effect; inactive means no such curve, though single readings can be large or run the other way; tested in A549 cells; further: nearly all actives have a fitted effect of over 30% in size; inactives centre near -10
* marks the source's active call; other numbers are inactive results; i = inactive; ? = inconclusive; . = not tested or not shown; & = joins results of further samples; [ ] = dose if it differs, or a comment. On the % scale 0 is the no-effect control and ±100 the full control effect; potency means the concentration at half of the fitted maximal effect.

compound | VACV mCherry inh | VACV Venus inh
Cc1ccc(O)c(C(=O)c2cc(C(=O)NCCc3ccccc3)c(=O)n(CCc3ccccc3)c2)c1 | i | -6%
Cc1ccc(C(=O)Nc2ccc3c(c2)OCCO3)c(C)c1 | i | 10%
Cc1ncc(CO)c(/C=N/NC(=O)c2ccccc2Br)c1O | ? | ?
OC[C@H](O)[C@H](O)[C@@H](O)[C@@H](O)[C@@H]1SC(c2ccccc2)=NN1c1ccccc1 | ? | 6%
CCCC(=O)Nc1ccc(Cl)c(NC(=O)CC)c1 | -11% | -8%
Cn1cccc1C(=O)NC(=O)COC(=O)c1ccc(S(C)(=O)=O)c([N+](=O)[O-])c1 | -9%&-17% | -9%&2%
O=C(CSc1nccn(-c2ccc(Br)cc2)c1=O)NCc1ccccc1 | -27% | -18%
COc1ccc(-n2nc3c(c2NC(=O)COc2ccccc2)CS(=O)C3)cc1 (configuration not stated) | -11% | -3%
CCOC(=O)C1CCN(C(=O)Cn2nc(C)n3c(cc4cc(F)ccc43)c2=O)CC1 | -10% | -5%
COc1ccc(-n2c(SCC(=O)O)nc3sc4c(c3c2=O)CCC4)cc1 | i | -12%
CN(C)c1ccc(NC(=O)CSC2=Nc3ccccc3C3=NC(CC(=O)NCc4ccccc4)C(=O)N23)cc1 (configuration not stated) | 0% | -13%
COc1ccc(-c2noc(-c3ccc(N4CCCCC4)c([N+](=O)[O-])c3)n2)cc1 | -5% | 0%
COc1ccc(CCNC(=O)c2c(O)c3c([nH]c2=O)CCCC3)cc1OC | -4% | 7%
NNC(=O)Cn1nc2n(c1=O)-c1ccccc1SC2 | i | -18%
Cc1nn(Cc2cccc(F)c2)c(C)c1NC(=O)c1ccc(COc2ccccc2Cl)cc1 | 11µM* | 13µM*
COc1ccc(CCNC(=O)COC(=O)c2cccn2C)cc1 | i | 10%
Cn1c2c(c(=O)n(C)c1=O)C(c1ccccc1[N+](=O)[O-])CC(=O)N2 (configuration not stated) | -10% | -4%
O=C(CSC(=S)N1CCCC1)NCC(=O)Nc1ccc(F)c(F)c1 | i | -10%
CSc1nc(S(=O)(=O)c2ccc(C)cc2)c(N2CCOCC2)s1 | -20% | -5%
Cc1oc(-c2cccc(Cl)c2)nc1CS(=O)(=O)CC(=O)NCCCN1CCOCC1 | ? | -12%

4 entries from above in a different format.
structure: Cc1nn(Cc2cccc(F)c2)c(C)c1NC(=O)c1ccc(COc2ccccc2Cl)cc1
  VACV mCherry inh: 11µM*	VACV Venus inh: 13µM*
structure: COc1ccc(CCNC(=O)COC(=O)c2cccn2C)cc1
  VACV mCherry inh: i	VACV Venus inh: 10%
structure: Cn1c2c(c(=O)n(C)c1=O)C(c1ccccc1[N+](=O)[O-])CC(=O)N2 (configuration not stated)
  VACV mCherry inh: -10%	VACV Venus inh: -4%
structure: O=C(CSC(=S)N1CCCC1)NCC(=O)Nc1ccc(F)c(F)c1
  VACV mCherry inh: i	VACV Venus inh: -10%

The listing continues:
compound | VACV mCherry inh | VACV Venus inh
O=C(NNc1c(F)c(F)cc(F)c1F)c1cc2ccccc2oc1=O | i | -6%
O=C(Nc1ccccc1)Nc1ccc(Br)c(Cl)c1 | ? | ?
COc1ccc(C2=NCc3nnc(C)n3-c3ccc(Cl)cc32)cc1Cl | -13% | -12%
C[C@H]1CN([C@@H](C)CO)C(=O)CCCn2cc(nn2)CO[C@@H]1CN(C)S(=O)(=O)c1ccccc1C#N | -22% | ?
CSc1ccc(Cl)c(C(=O)N(C)CC(=O)Nc2ccc(N3CCOCC3)cc2)c1 | -1% | -10%
CC(=O)NC1CC2CCCC(C1)N2S(=O)(=O)c1cccc(F)c1 (configuration not stated) | -18% | -12%
NCCCC[C@@H](C(=O)N1CCNCC1)n1cc([C@@H](N)CC(N)=O)nn1 | i | 1%
CC(=O)NC1C(O)OC(CO)C(O)C1O (configuration not stated) | -16% | -18%
O=C(Nc1ccc(-c2cn3ccccc3n2)cc1)c1ccc(Cl)cc1 | . | -5%
COc1ccc(OCC(=O)N2CCN(C3CCC(c4ccccc4)CC3)CC2)cc1 (configuration not stated) | -4% | -23%
COc1ccc(NC(=O)CCCSc2ccccc2)cc1S(N)(=O)=O | i | -1%
COCCNC(=O)CN1C(=O)CSc2ncccc21 | i | -5%
CC(=O)c1cnc2nc(C(F)(F)F)nn2c1C | . | -18%
Nn1c(SCc2cn3ccccc3n2)nnc1-c1ccncc1 | -13% | -11%
CC(C)(C)c1nc(NCc2ccc3c(c2)OCO3)c2nnn(Cc3ccccc3Cl)c2n1 | -5% | 0%
CC(C)Oc1ccc(C(=O)O)cc1 | -11% | -1%
COc1ccc(NCc2cccn2-c2nnc(N3CCCCCC3)s2)cc1 | 0% | -1%
CN1CCN(c2ccc(NC(=S)NC(=O)c3cccc4c(Cl)cccc34)cc2)CC1 | -11%[7.34 µM] | -8%[7.34 µM]
O=C(NCc1ccco1)c1cc2ccccc2o1 | -16%[1.46 µM] | -18%
CC1=C(C(=O)Nc2ccccc2)C(c2ccccc2C)n2nc(SCC(=O)c3ccc(C)cc3)nc2N1 (configuration not stated) | -13% | -11%
CCOc1ccc(NC(=S)NCc2ccco2)cc1 | -7% | 7%
CCc1nc2sccc2c(=O)[nH]1 | i | -4%
CCOC(=O)N1CCN(S(=O)(=O)c2ccc(C(=O)Nc3nnc(C)o3)cc2)CC1 | i | -17%
COc1ccc(-c2nc(S(=O)(=O)c3ccc(C)cc3)c(NCc3ccccc3)o2)cc1 | -12% | 3%
Cc1cccc(C(=O)NCC(=O)OCC(=O)c2ccc3ccccc3c2)c1 | 37%[activator] | 8%
CS(=O)(=O)N1CCSC1c1ccc(Br)cc1 (configuration not stated) | -7% | -19%
Cc1ccc(C)c(N=C2NC(=O)CS2)c1 | -12% | 10%
CC(=O)c1ccc(S(=O)(=O)N2CCN(c3ccnc4cc(Cl)ccc34)CC2)cc1 | -30% | -24%
Cc1ccc(S(=O)(=O)NCC(=O)N(CC(=O)NCC2CCCO2)c2cccc(F)c2)cc1 (configuration not stated) | -10% | 5%
CN1CCN(c2ccccc2NC(=O)c2ccc([N+](=O)[O-])o2)CC1 | ? | ?
COc1ccc(C(=O)C2CCCN(S(=O)(=O)c3cccnc3)C2)c(C)c1 (configuration not stated) | -13% | -3%
CCC(OC(=O)CN1C(=O)C(=O)c2ccccc21)C(=O)Nc1ccccc1OC (configuration not stated) | -16% | -5%
CC(=O)c1ccc(Cc2ccc(C(C)=O)cc2)cc1 | -3% | 3%
O=C(COc1ccccc1O)NC1CCCC1 | i | 4%
Cc1ccc(SCC(=O)NC2CC3CCC(C2)N3C)cc1 (configuration not stated) | -6% | -13%
O=C(NCCc1ccccc1C(F)(F)F)C1CCC(=O)N(C2CC2)C1 (configuration not stated) | i | -17%
c1cc2c3c(cccc3c1)NN=N2 | ? | 1%
CCn1c(C)nnc1SCC(=O)Nc1ccc(N2CCOCC2)cc1 | i | -2%
CCOC(=O)c1c(CC(C)C)csc1NC(=O)c1ccccc1C(=O)O | 8%[7.34 µM] | 16%[7.34 µM]
CCc1ccc(C(=O)CN2C(=O)C(C)N(c3ccc(C)cc3)C2=O)cc1 (configuration not stated) | i | -16%

Quoted at random: 6 compounds from above.
compound | VACV mCherry inh | VACV Venus inh
CCc1nc2sccc2c(=O)[nH]1 | i | -4%
COc1ccc(C(=O)C2CCCN(S(=O)(=O)c3cccnc3)C2)c(C)c1 (configuration not stated) | -13% | -3%
CC(=O)c1ccc(Cc2ccc(C(C)=O)cc2)cc1 | -3% | 3%
Cc1ccc(SCC(=O)NC2CC3CCC(C2)N3C)cc1 (configuration not stated) | -6% | -13%
CS(=O)(=O)N1CCSC1c1ccc(Br)cc1 (configuration not stated) | -7% | -19%
O=C(COc1ccccc1O)NC1CCCC1 | i | 4%

Further entries:
compound | VACV mCherry inh | VACV Venus inh
Cc1ccc(C)c(N2CCN(S(=O)(=O)c3ccc(-c4coc(C)n4)cc3)CC2)c1 | -6% | -9%
CCCCN(C)C(=O)Cn1c(C2CC(=O)N(c3ccc(C)cc3)C2)nc2ccccc21 (configuration not stated) | -10% | 8%
COc1ccc(C2c3c(ccc4ccccc34)Oc3ncn4nc(-c5ccco5)nc4c32)cc1 (configuration not stated) | -13% | -9%
O=C(NC(=S)N1CCOCC1)c1ccc([N+](=O)[O-])cc1 | -24% | -8%
Cc1ccc(C)c(OC(=O)CN2C(=O)c3ccccc3C2=O)c1 | -21% | -13%
Cc1ccc(-c2cc(C(=O)N3CCCC3)c3ccccc3n2)s1 | -14% | -8%
Cc1cccc(NC(=O)Cn2c(=O)n(Cc3ccc4c(c3)OCO4)c(=O)c3ccccc32)c1 | -18% | -8%
Cc1ccccc1N1CCN(Cc2ccc([N+](=O)[O-])o2)CC1 | -19% | -25%
Cn1c(=O)[nH]c(=O)c2c1nc(Br)n2Cc1ccc(Cl)cc1 | -14% | -21%
CCN(CC(=O)Nc1ccc(NC(C)=O)cc1)C(=O)C1CC(=O)N(CCc2ccc(OC)c(OC)c2)C1 (configuration not stated) | -15% | -5%
Cc1ccnc(NC(=O)Cn2ccc([N+](=O)[O-])n2)c1 | -11% | -10%
Cc1cc(C(=O)Nc2ccccc2-c2nc(CNC(=O)c3ccc(F)cc3F)c(C)o2)c(C)o1 | -5% | 1%
CC(Nc1nc(-c2cccnc2)nc2ccccc12)c1ccccc1 (configuration not stated) | i | -20%
COc1cc(CN(C(=O)Nc2cccc(Cl)c2)c2ccccn2)cc(OC)c1OC | -19% | -9%
O=C1Nc2ccccc2C(O)(C(=O)N2CCCCC2)N1c1ccccc1 (configuration not stated) | . | -4%
Cc1ccc(/C=N/Nc2cc(C)nc(N3CCOCC3)n2)cc1 | i | -14%
CCCCCCn1cc(CN2CC(N3CCCCC3)CS2(=O)=O)nn1 (configuration not stated) | 18% | 0%
Cc1ccc(CN2CCN(/N=C\c3cccc([N+](=O)[O-])c3)CC2)cc1 | -19% | -11%
COc1cccc(-n2c(-c3ccco3)nc3c(cnn3-c3ccc(C)cc3)c2=O)c1 | -28% | -15%
Cc1cnc(-n2ncc(C(=O)NCC(C)(C)N3CCOCC3)c2C(C)C)nc1-c1ccc(F)cc1 | -17% | -15%

New compounds follow:
mol,VACV mCherry inh,VACV Venus inh
CCCn1nnnc1NCc1cccc(OC)c1,-2%,-22%
Cc1ccccc1C(=O)N1CCC(N2CCN(Cc3ccc(F)cc3)C(=O)C2=O)CC1,-10%,1%
Cc1cccc(N2CCN(C(=O)c3nn(C)c4c3CS(=O)(=O)c3ccccc3-4)CC2)c1C,-9%,-10%
CC(C)(C)NC(=O)CN(C(=O)CCC(=O)Nc1nccs1)c1ccccc1F,i,-11%
c1ccc(NC2=NCCN2CCC2CCCCC2)cc1,i,-13%
Cc1cc(C)n2nc(C(=O)NCc3ccco3)nc2n1,-8%,0%
CS(=O)(=O)N1CCCC(C(=O)Nc2ccc3c(c2)OCCO3)C1 (configuration not stated),i,-17%
O=C(NCc1ccccc1Cl)c1cc(C(=O)C2CC2)c[nH]1,i,-15%
O=C(NCC1CCCO1)C1CCCN(S(=O)(=O)c2cccc3nsnc23)C1 (configuration not stated),-6%,-7%
COc1ccc(/C=C/S(=O)(=O)NCc2ccccc2)cc1OC,i,-9%
O=C(NCc1ccc(Cl)cc1)N1CCN(C(=O)c2ccccc2)CC1,-6%,-11%
O=S(=O)(O)c1ccc(Nc2ncnc3c2ncn3[C@@H]2O[C@H](CO)[C@@H](O)[C@H]2O)cc1,i,-11%
NS(=O)(=O)c1ccc(CCNC(=O)CNC(=O)c2ccccc2Br)cc1,-23%,-6%
CC1=C(C(=O)Nc2ccccc2)C(c2ccccc2C)n2ncc(C(=O)Nc3ccccc3)c2N1 (configuration not stated),i,-2%
Fc1ccc(NC(=S)Nc2ccc(Cl)cc2)cc1,-2%,-16%
CO[C@H]1/C=C\O[C@@]2(C)Oc3c(C)c(O)c4c(O)c(c(C=NN5CCN(C6CCCC6)CC5)c(O)c4c3C2=O)NC(=O)C(C)=CC=C[C@H](C)[C@H](O)[C@@H](C)[C@@H](O)[C@@H](C)[C@H](OC(C)=O)[C@H]1C,-23%,-17%
COc1cc(NS(=O)(=O)c2cccc3nsnc23)c(C(=O)O)cc1OC,-2%,4%
Cc1ccc(NC(=S)N(Cc2cccc(Br)c2)CC2CCC(C(=O)O)CC2)cc1 (configuration not stated),-4%,-7%
CCN(Cc1ccccc1)C(=O)CSc1ccccc1C(=O)O,i,-6%
O=C(c1cnccn1)N1CCc2ccccc2C1,i,-10%
O=C(Cc1ccc(-c2ccccc2)cc1)NO,-19%,-19%
COCC(=O)N(CCc1ccc(OC)c(OC)c1)Cc1cc2cc(C)ccc2nc1Cl,i,-5%
Nc1cc(C(=O)OCC(=O)NCc2ccc(F)cc2)ccc1Cl,-7%,-14%
O=C(O)c1ccc(NNC(=S)Nc2cc(C(F)(F)F)ccc2Cl)cc1,?,-8%
Cc1cc(C)c(NC(=O)CNC(=O)COC(=O)/C=C/c2cccs2)c(C)c1,i,-22%
Cc1c(C)n(CCO)c2ncnc(Nc3ccc(F)cc3)c12,-19%,-7%
O=C(NCc1ccccc1)C(c1cccnc1)N(C(=O)c1ccccn1)c1ccc(F)cc1 (configuration not stated),-8%,5%
